Screening data: PubChem, National Center for Advancing Translational Sciences (NCATS)
RE007 growth inh = less growth of the S. pombe RE007 Vpr strain. Potency, µM (series often up to 92.2 µM), for inactives: at the top dose activity change, negative = less growth. S. pombe RE007 Vpr strain, BacTiter-Glo ATP luminescence, 24 h; control for the full effect not named in the record. AID 651644. actives 0.21% (n = 360,000); active = well fitted falling curve with a large enough effect; inconclusive = small, poorly fitted or top-dose-only effect; inactive = no such curve, though single readings can be large or run the other way;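 note: % is set by controls: 0 for no effect and ±100 for the full control effect; nearly all actives have a fitted effect of over 50% in size; the assay follows cell death caused by Vpr and the record does not say whether a fall means rescue or toxicity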
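Fission yeast RE007 carrying one integrated HIV-1 vpr copy, seeded at OD 0.01 in PMG+AL medium with 23 nL pinned compound. Grown 24 h at 30 degrees; viability read by BacTiter-Glo luminescence after 5 min.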
SARS PLP yeast = blocks SARS-CoV papain-like protease in a yeast assay | S. cerevisiae expressing SARS-CoV PLpro, growth rescue; control for the full effect not named in the record | Potency, µM (series often up to 32.9 µM), without a hit: at the highest dose activity, positive = growth rescue | actives 0.19% (n = 330,000); active means well fitted rising curve with a large enough effect; inconclusive means small, poorly fitted or top-dose-only effect; inactive means no such curve, though single readings can be large or run the other way; note: 0% is about no effect; nearly all actives have a fitted effect of over 55% in size; growth read by luminescence after 48 h
StopGo reporter = FMDV 2A StopGo reporter, luciferase signal; human cells with a luciferase reporter of 2A StopGo recoding; control for the full effect not named in the record; Potency, µM (series often up to 57.9 µM), for the others: at the highest dose signal change, negative = less light; actives 1.2% (n = 410,000); active = well fitted falling curve with a large enough effect; inconclusive = small, poorly fitted or top-dose-only effect; inactive = no such curve, though single readings can be large or run the other way; tested in HEK293T cells; note: % is set by controls: 0 for no effect and ±100 for the full control effect; nearly all actives have a fitted effect of over 45% in size; luciferase light after 4 h
An asterisk follows results filed as active; u = inconclusive; [ ] = dose if it differs, or a comment. Potency is the fitted concentration of half-maximal effect.

SMILES	RE007 growth inh	SARS PLP yeast	StopGo reporter
CC(C(=O)Nc1nnc(C2CC2)s1)N1C(=O)C2CC=CCC2C1=O (stereo not drawn)	-1%	-6%	-7%
Cc1ccc(S(=O)(=O)Nc2cccc3c2O[C@H](CN(C)Cc2ccc(-c4ccccc4)cc2)[C@@H](C)CN([C@H](C)CO)C3=O)cc1	4%	0%	-16%
CCCCn1c(N)c(N(C)C(=O)c2ccc(-n3cccn3)cc2)c(=O)[nH]c1=O	-3%	-15%	-20%
CCOC(=O)C1=CN(Cc2ccco2)S(=O)(=O)N(CC)C1c1ccc(C(F)(F)F)cc1 (stereo not drawn)	-4%	-29%	-22%
O=C(CC1C[C@H](C(=O)N2CCCCC2)[C@@]2(CCc3ccccc3)c3[nH]c4ccccc4c3CCN2C1=O)NCCCn1ccnc1 (stereo partly drawn)	4%	0%	42%[activator]
CCN(C[C@H]1N[C@@](C)(C(=O)OC)[C@H]2C(=O)N(Cc3ccccc3)C(=O)[C@@H]12)C(=O)Nc1ccc(OC)cc1	3%	5%	-12%
C=CCC[C@H](Cc1ccc(F)cc1)C(=O)OC[C@@H](Cc1c[nH]c2ccccc12)NC(=O)[C@H](CC=C)CC(=O)N(CCO)Cc1ccccc1	-6%	-5%	40µM*
COc1ccc(C(=O)N2CCN(c3ncccn3)CC2)cc1S(=O)(=O)N1CCOCC1	3%	3%	-8%
CC1=CN(S(=O)(=O)c2ccc(C)cc2)C[C@@H]2c3ccccc3N(S(=O)(=O)c3ccc(C)cc3)[C@H]12	-1%	9%	-12%
COc1cccc(-c2ncc3ccccc3c2COC(=O)CCCC(=O)O)c1	-9%	1%	-24%
C[C@@H]1COC(=O)[C@H](Cc2ccc(F)cc2)CC/C=C/C[C@@H](CC(=O)N[C@H](CO)Cc2ccccc2)C(=O)N1	0%	-1%	-5%
CC(Oc1ccc(F)cc1)C(=O)Nc1ccccc1C(=O)N1CCCCC1 (stereo not drawn)	-1%	0%	-12%
CCN1C(=O)CC(c2ccccc2)N(C2CCCC2)c2nc(Nc3ccc(C(=O)NC4CCN(C)CC4)cc3OC)ncc21 (stereo not drawn)	-2%	-23%	-21%
O=C(c1cccc(S(=O)(=O)N2CCOCC2)c1)N(Cc1ccco1)Cc1cccs1	-1%	-1%	-2%
COc1ccc(NC(=O)c2ccc(S(=O)(=O)N3CCCC3)cc2)cc1OC	5%	3%	-1%
CCOc1ccc(NC(=O)COC(=O)c2ccc(S(=O)(=O)N3CCOCC3)cc2)cc1	14%	1%	-3%
CCOc1ccc(NS(=O)(=O)c2cc(C(=O)NCCCN3CCCC3=O)ccc2C)cc1	-24%	5%	70%[activator]
COc1ccc(-c2oc(=O)c3cc(OC)c(OC)cc3c2/C=C/c2ccc(OC(C)=O)cc2)cc1	-7%	-7%	-8%
Clc1ccc(-c2ccn[nH]2)cc1	-26%	2%	38%[activator]
COc1ccc(-c2c(-c3cc(OC)cc(OC)c3)sc3ccc(OC)cc23)cc1	7%	-3%	-12%

Ordered by formula weight (rising): 3 of the compounds above.
SMILES	RE007 growth inh	SARS PLP yeast	StopGo reporter
Clc1ccc(-c2ccn[nH]2)cc1	-26%	2%	38%[activator]
COc1ccc(C(=O)N2CCN(c3ncccn3)CC2)cc1S(=O)(=O)N1CCOCC1	3%	3%	-8%
Cc1ccc(S(=O)(=O)Nc2cccc3c2O[C@H](CN(C)Cc2ccc(-c4ccccc4)cc2)[C@@H](C)CN([C@H](C)CO)C3=O)cc1	4%	0%	-16%

Later entries.
SMILES	RE007 growth inh	SARS PLP yeast	StopGo reporter
O=C(COC(=O)COc1ccccc1F)NCCc1ccc(F)cc1	7%	1%	-2%
COc1ccc(C(=O)OCC(=O)NC(=O)Nc2ccccc2F)c(OC)c1	17%	0%	11%
CC(C)(C)NC(=O)C(c1ccc(-c2ccccc2)cc1)N(C[C@H]1CC[C@@H]([C@@H]2CC[C@H](CO)O2)O1)C(=O)c1ccc(C(C)(C)C)cc1 (stereo partly drawn)	8%	3%	0%
COc1ccc(NC(=O)Nc2ccc3c(c2)CC(=O)N([C@H](C)CO)C[C@H](C)[C@H](CN(C)Cc2ccc(C(=O)O)cc2)O3)cc1	-5%	4%	-14%
CC(C)CC1NC(=O)N(CC(=O)N(C)C2CCCCC2)C1=O (stereo not drawn)	2%	3%	-7%
O=C(c1ccc(F)cc1)C1CCN(C(=S)Nc2ccccc2Cl)CC1	0%	0%	-10%
CC/C=C(/NC(C)=O)c1ccccc1	13%	-24%	-8%
O=C(NCC(=O)N1CCCCCCC1)c1ccco1	-7%	3%	43%[activator]
CC(C)(C)OC(=O)C[C@H]1C/C=C\C[C@@H](CC(=O)NCCO)C(=O)NC[C@H](c2ccccc2)OC1=O	-6%	-1%	-22%
CNC[C@@H]1Oc2ccc(NC(=O)Nc3ccccc3)cc2C(=O)N([C@@H](C)CO)C[C@H]1C	-21%	6%	-22%
CCCCN1CCNC[C@@H]1c1ccccc1	12%	-3%	-10%
O=C1c2ccc(Cl)cc2S(=O)(=O)c2cccc(C(=O)N3CCN(c4ncc(Br)cn4)CC3)c21	-10%	1%	15%
Cc1ccnc2nc(C(=O)OCC(=O)N(Cc3ccccc3)C(C)C)nn12	-4%	3%	-2%
COc1ccc(C(CNC(=O)c2cccc(S(=O)(=O)N3CCOCC3)c2)N2CCCC2)cc1 (stereo not drawn)	1%	-1%	-10%
CCOc1cc(-c2sc(Nc3ccc(CC)cc3)n[n+]2-c2ccccc2)ccc1OC	79%	0%	-20%
CCCCCCSc1cccc(-c2nc3ccc(C)cn3c2NCc2ccccc2)c1	-12%	5%	u
O=C(CN1CCN(c2ccc(O)cc2)CC1)NCC(=O)Nc1ccc(F)c(F)c1F	-6%	3%	1%
O=C(C[C@H]1C/C=C\CC[C@H](Cc2ccc(F)cc2)C(=O)OC[C@H]2CCCN2C1=O)N[C@H](CO)Cc1ccccc1	-20%	-1%	-2%
CCOC(=O)c1ccc(S(=O)(=O)N2CCN(CCc3ccncc3)CC2)cc1	1%	-5%	u
COC(=O)[C@]1(Cc2ccccc2)N[C@H](CN(C)C(=O)Nc2ccc(F)cc2)[C@@H]2C(=O)N(Cc3ccccc3)C(=O)[C@@H]21	6%	-7%	-3%
CN(CC(=O)Nc1cc(S(=O)(=O)N2CCCCCC2)ccc1Cl)Cc1ccc2c(c1)OCO2	11%	0%	-26%
O=C(NCCCn1ccnc1)C(=O)NCC(c1ccco1)N1CCN(c2ccc(F)cc2)CC1 (stereo not drawn)	-6%	2%	0%
CC(C)NC(=O)Nc1cccc2c1O[C@H](CN(C)S(C)(=O)=O)[C@@H](C)CN([C@H](C)CO)C2=O	6%	-2%	9%
CCCC(=O)C1=C(O)C(c2cccc(Oc3ccccc3)c2)CCC1=O (stereo not drawn)	13%	14%	-11%
COc1ccccc1CCNC(=O)c1ccc(NC(=O)CC2SC(N3CCCCC3)=NC2=O)cc1 (stereo not drawn)	-3%	2%	-4%
Cc1c2n(c3ccccc13)CCN(C)C2	-2%	-1%	-15%
CC(C)C(NC(=O)c1c(F)cccc1F)C(=O)N1CCN(c2ncccn2)CC1 (stereo not drawn)	15%	-6%	-3%
CCCCNC(=O)N(O)C1N(/N=C/c2ccco2)C(=S)SC1(C)C (stereo not drawn)	-2%	-2%	27%
COCCCNC(=O)CC1C[C@H](C(=O)N(C(C)C)C(C)C)[C@@]2(C)c3[nH]c4ccccc4c3CCN2C1=O (stereo partly drawn)	5%	-2%	0%
O=C(CNS(=O)(=O)c1ccccc1)OCC(=O)c1c[nH]c2ccccc12	0%	-28%	7%
O=C1c2ccccc2[C@@H]2C[C@H](NC34CC5CC(CC(C5)C3)C4)[C@@H](O)CCN12	-18%	-2%	-9%

21 neighbouring entries from above, for reference:
SMILES	RE007 growth inh	SARS PLP yeast	StopGo reporter
CC(C)(C)OC(=O)C[C@H]1C/C=C\C[C@@H](CC(=O)NCCO)C(=O)NC[C@H](c2ccccc2)OC1=O	-6%	-1%	-22%
CNC[C@@H]1Oc2ccc(NC(=O)Nc3ccccc3)cc2C(=O)N([C@@H](C)CO)C[C@H]1C	-21%	6%	-22%
CCCCN1CCNC[C@@H]1c1ccccc1	12%	-3%	-10%
O=C1c2ccc(Cl)cc2S(=O)(=O)c2cccc(C(=O)N3CCN(c4ncc(Br)cn4)CC3)c21	-10%	1%	15%
Cc1ccnc2nc(C(=O)OCC(=O)N(Cc3ccccc3)C(C)C)nn12	-4%	3%	-2%
COc1ccc(C(CNC(=O)c2cccc(S(=O)(=O)N3CCOCC3)c2)N2CCCC2)cc1 (stereo not drawn)	1%	-1%	-10%
CCOc1cc(-c2sc(Nc3ccc(CC)cc3)n[n+]2-c2ccccc2)ccc1OC	79%	0%	-20%
CCCCCCSc1cccc(-c2nc3ccc(C)cn3c2NCc2ccccc2)c1	-12%	5%	u
O=C(CN1CCN(c2ccc(O)cc2)CC1)NCC(=O)Nc1ccc(F)c(F)c1F	-6%	3%	1%
O=C(C[C@H]1C/C=C\CC[C@H](Cc2ccc(F)cc2)C(=O)OC[C@H]2CCCN2C1=O)N[C@H](CO)Cc1ccccc1	-20%	-1%	-2%
CCOC(=O)c1ccc(S(=O)(=O)N2CCN(CCc3ccncc3)CC2)cc1	1%	-5%	u
COC(=O)[C@]1(Cc2ccccc2)N[C@H](CN(C)C(=O)Nc2ccc(F)cc2)[C@@H]2C(=O)N(Cc3ccccc3)C(=O)[C@@H]21	6%	-7%	-3%
CN(CC(=O)Nc1cc(S(=O)(=O)N2CCCCCC2)ccc1Cl)Cc1ccc2c(c1)OCO2	11%	0%	-26%
O=C(NCCCn1ccnc1)C(=O)NCC(c1ccco1)N1CCN(c2ccc(F)cc2)CC1 (stereo not drawn)	-6%	2%	0%
CC(C)NC(=O)Nc1cccc2c1O[C@H](CN(C)S(C)(=O)=O)[C@@H](C)CN([C@H](C)CO)C2=O	6%	-2%	9%
CCCC(=O)C1=C(O)C(c2cccc(Oc3ccccc3)c2)CCC1=O (stereo not drawn)	13%	14%	-11%
COc1ccccc1CCNC(=O)c1ccc(NC(=O)CC2SC(N3CCCCC3)=NC2=O)cc1 (stereo not drawn)	-3%	2%	-4%
Cc1c2n(c3ccccc13)CCN(C)C2	-2%	-1%	-15%
CC(C)C(NC(=O)c1c(F)cccc1F)C(=O)N1CCN(c2ncccn2)CC1 (stereo not drawn)	15%	-6%	-3%
CCCCNC(=O)N(O)C1N(/N=C/c2ccco2)C(=S)SC1(C)C (stereo not drawn)	-2%	-2%	27%
COCCCNC(=O)CC1C[C@H](C(=O)N(C(C)C)C(C)C)[C@@]2(C)c3[nH]c4ccccc4c3CCN2C1=O (stereo partly drawn)	5%	-2%	0%

The list is partial (hit frequency here may not be typical).
